Rango dissoc inh: qHTS Assay for Inhibitors of RanGTP induced Rango (Ran-regulated importin-beta cargo) - Importin beta complex dissociation | Snurportin-1 (Homo sapiens) + GTP-binding nuclear protein Ran (Homo sapiens) + Importin … | Biochemical FRET Rango-importin beta, RanGTP-induced dissociation | Potency, µM (top dose mostly 46.1 µM), inactives show at the highest dose activity change, negative = inhibition | hit rate 0.071% among 340,000 | AID 540253, 2011; active means falling FRET ratio curve, often poorly fitted, with flat reads before Ran was added; inconclusive means other falling curves, or compound fluorescence or quenching; inactive means flat or rising ratio curve;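 further: potency means the concentration at half of the fitted maximal effect; % of control where 0% means no effect; nearly all actives have a fitted effect of over 45% in size; -100% = wells without RanGTP and RCC1; the record marks most hits as doubtful in a second field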
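Recombinant Rango FRET biosensor (EYFP–snurportin 1 IBB–cerulean CFP10) at 0.1 uM premixed with 0.25 uM importin beta in PBS, 1 mM DTT, 0.02% Tween-20, 0.1% BSA. Compound added 5 min; RanGTP-RCC1 (0.6 uM Ran, 2 mM GTP, 0.2 uM RCC1) then triggers release, read at 45 min.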
miR-21 reporter: qHTS Assay for Modulators of miRNAs and/orActivators of miR-21; HeLa miR-21 FLuc reporter, luciferase, 48 h; Potency, µM (highest dose often 38.3 µM), for the others: at the highest dose reporter change, positive = more light; 340,000 tested, under 10 active; active = well fitted rising curve with a large enough effect; inconclusive = small, poorly fitted or top-dose-only effect; inactive = no such curve, though single readings can be large or run the other way;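 further: % of control where 0% means no effect; miR-21 action dims this reporter so a rising signal means less miR-21 action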
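Using DMEM plus 10% FBS, HeLa miR-21-FLuc cells are incubated with test compounds (final up to about 40uM) for 48 hours; firefly luciferase signal is then imaged following reagent-mediated lysis.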
Rango-impB inh: qHTS Assay for Inhibitors of Rango (Ran-regulated importin-beta cargo) - Importin beta complex formation; Importin subunit beta-1 (Homo sapiens), Q14974; Rango CFP/YFP FRET sensor + importin beta, 45 min; Potency, µM (titrated, usually from 92.2 µM), for inactives: at the highest dose inhibition of complex formation; hit rate 0.031% among 340,000; AID 540263, 2011; active = rising FRET ratio curve, often small or poorly fitted; inconclusive = mostly compound fluorescence or quenching in the first reads; inactive = flat curves in all reads;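 further: potency means the concentration at half of the fitted maximal effect; 0% = DMSO wells and 100% = buffer wells lacking importin beta; nearly all actives have a fitted effect of over 15% in size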
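Inhibition scored from the CFP 486 nm/YFP 530 nm FRET ratio 45 min after adding 0.125 microM importin beta to 50 nM Rango biosensor preincubated 5 min with compound (room temperature, PBS with DTT, Tween-20, BSA). No-importin wells as positive control.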
GLA inh pH 4.5: qHTS Assay for Inhibitors of Human alpha-Galactosidase at pH 4.5 | activity change, negative = inhibition, % at 105 µM | purified enzyme, 4-MU-alpha-Gal fluorescence, pH 4.5 | Alpha-galactosidase A (Homo sapiens), P06280 | 230,000 tested, under 10 active | AID 1467, 2008; inconclusive = small, poorly fitted or top-dose-only inhibition, or a rising curve; inactive = flat fitted curve, though single readings scatter; no compound was filed as active;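 further: 0% = full activity with enzyme and -100% = basal without enzyme; dose as in the result columns while the protocol names 77 µM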
Target sequence (P06280 whole entry, looked up): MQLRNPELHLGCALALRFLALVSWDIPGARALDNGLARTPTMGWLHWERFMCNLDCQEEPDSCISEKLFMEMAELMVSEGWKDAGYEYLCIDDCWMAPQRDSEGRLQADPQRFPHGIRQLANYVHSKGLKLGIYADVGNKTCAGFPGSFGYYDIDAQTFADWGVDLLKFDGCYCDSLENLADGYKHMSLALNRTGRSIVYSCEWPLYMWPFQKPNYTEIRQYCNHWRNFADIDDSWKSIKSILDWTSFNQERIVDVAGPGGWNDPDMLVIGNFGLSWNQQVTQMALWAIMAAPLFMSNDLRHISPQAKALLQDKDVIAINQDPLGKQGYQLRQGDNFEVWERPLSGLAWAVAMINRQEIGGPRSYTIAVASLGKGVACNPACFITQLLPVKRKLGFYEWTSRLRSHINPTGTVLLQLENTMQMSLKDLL
The depositor's hits bear a star; ? = inconclusive; nt = no result given; & = joins results of further samples; [ ] = dose if it differs, or a comment. An excerpt; count on the stated rates, not on these rows.

Start of the listing, in advance (two entries):
SMILES	Rango dissoc inh	miR-21 reporter	Rango-impB inh	GLA inh pH 4.5
CN(C)c1ccc(CNCCC2CCOC(C)(C)C2)cc1 (stereo not given)	nt	1%	nt	-1
CC(C)CC(COCc1ccc(F)cc1)N1CCN(C(=O)c2cccc(C(F)(F)F)c2)CCC1=O (stereo not given)	-2%	-3%	-0.8%	-6

The listing, repeating the preview:
SMILES	Rango dissoc inh	miR-21 reporter	Rango-impB inh	GLA inh pH 4.5
CN(C)c1ccc(CNCCC2CCOC(C)(C)C2)cc1 (stereo not given)	nt	1%	nt	-1
CC(C)CC(COCc1ccc(F)cc1)N1CCN(C(=O)c2cccc(C(F)(F)F)c2)CCC1=O (stereo not given)	-2%	-3%	-0.8%	-6
Cc1c(N)cccc1Cl	5%	nt	1.4%	nt
Cc1cc(Cl)ccc1NC(=S)NCCc1ccc(S(N)(=O)=O)cc1	1%	nt	3.6%	nt
CC1=C(C(N)=O)C(c2ccc(Br)cc2)n2nc(CCCO)nc2N1 (stereo not given)	-5%	0%	-1.4%	nt
O=C(Cc1ccc(Br)cc1)Nc1ccc(S(=O)(=O)Nc2ncccn2)cc1	1%	-2%	2.7%	nt
CCCN1CCN(CCCNC(=O)C2CCN(c3nnc(-n4cccc4)s3)CC2)CC1	-12%	-2%	0.6%	2
COc1ccc(CCNC(=O)Cn2c(=O)oc3cc(Cl)ccc32)cc1OC	38%	0%	?	4
CC1CCCN(CC(=O)Nc2cc(S(=O)(=O)N3CCOCC3)ccc2N2CCCC2)C1 (stereo not given)	16%	nt	-0.4%	nt
Cc1cc(C)c2c(n1)sc1c(=O)[nH]c(SCc3ccccc3)nc12	17%	-7%	-4.7%	-3
O=S1(=O)C=C(SCCN2CCCC2)c2ccccc21	1%	0%	-1.8%	-2
COc1cccc(NC(=O)CNC(=O)N2CC(=O)Nc3ccccc32)c1	4%	-27%	-0.2%	nt
O=[N+]([O-])c1ccc(N2CCCC2)cc1NC1CC1	-26%	-12%	-1.0%	-6
CSc1nnc(Cc2sc(-c3ccccc3)nc2-c2ccccc2)o1	5%	-11%	0.5%	-8
COc1ccc(CC(C(=O)Nc2cc(C)ccc2C)/C(N)=N/O)cc1 (stereo not given)	3%	-3%	2.2%	-1
CCc1nc2sc(C)c(C)c2c(=O)n1CCO	-20%	-10%	-0.2%	-1
Cc1ccc(-c2nc(CN(CC3CCC3)CC3CCCO3)c(C)o2)s1 (stereo not given)	-4%	4%	-3.9%	-2
CCN(CC)S(=O)(=O)c1cc(C(=O)OCC(=O)NC2CCCc3ccccc32)ccc1C (stereo not given)	-9%	-2%	-0.1%	4
CCOc1cc(N2CCOCC2)c(OCC)cc1NC(=O)c1ccc(-n2ccnc2)c([N+](=O)[O-])c1	31%	12%	-4.3%	nt
O=C(Nc1cccc2c1CCCC2)c1ccco1	9%	-15%	-2.4%	0
COc1cccc(C(c2c(C)[nH]n(-c3ccccc3)c2=O)c2c(C)[nH]n(-c3ccccc3)c2=O)c1O	-10%	1%	3.8%	9
Cn1c(Oc2ccccc2NCc2cc(Br)ccc2O)cc(=O)n(C)c1=O	-10%	18%	-0.7%	3
Cc1cc(C)nc(NS(=O)(=O)c2ccc(NC(=O)CCC(=O)O)cc2)n1	-5%	nt	1.5%	nt
Cc1n[nH]c(C)c1S(=O)(=O)N(CC(=O)Nc1ccc2c(c1)OCCO2)c1ccc(C(C)C)cc1	3%	12%	-0.2%	-3
Cc1ccc(C(=O)Nc2ccccc2C(=O)NC(CC(=O)O)C(=O)O)cc1 (stereo not given)	0%	-20%	-1.7%	-9
COc1ccc(S(=O)(=O)N2CCOCC2)cc1C(=O)Nc1nc2ccccc2s1	7%	-9%	-4.3%	1
Cc1ccc(S(=O)(=O)NC(=O)NCC2CCN(S(=O)(=O)c3ccccc3)CC2)cc1	-13%	-1%	0.6%	nt
Cc1cc(C)c(S(=O)(=O)N2CCN=C2c2ccccc2)cc1C	2%	-9%	0.4%	0
Cc1ccc(N2C(=O)N(CC(=O)N3c4ccccc4CC3C)C(=O)C2C)cc1 (stereo not given)	0%	nt	2.3%	nt
COc1cc(OC)cc(C(=O)NCC(=O)OCC(=O)C(C)(C)C)c1	-23%	-6%	0.0%	0
Cc1cc(C)cc(OCC(=O)OCC(=O)N2CCc3ccccc32)c1	-3%	nt	-4.2%	nt
COc1ccc(NC(=O)CSc2nc(N)c(C(=O)Nc3ccc(N(C)C)cc3)s2)cc1	-1%	-42%	-0.1%	5
C=CCSc1nc(N)c(C#N)c(-c2ccc(C)cc2)c1C#N	-2%	-11%	-3.4%	-2
CCN(CC(=O)Nc1ccc(NC(C)=O)cc1)C(=O)Cc1ccc(S(=O)(=O)N2CCOCC2)s1	10%	nt	-0.3%	nt
O=C(CN(c1ccccc1)S(=O)(=O)c1ccc(F)cc1)N1CCCCCC1	-7%	-5%	-2.1%	-5
CC(C)(C)OC(=O)NCc1ccc(CNC(=O)c2[nH]cnc2C(=O)NC2CCN(C(=O)OC(C)(C)C)CC2)cc1	8%	nt	-0.8%	nt
CC(CCc1ccccc1)NC(=O)C1CC1 (stereo not given)	1%	nt	-1.7%	nt
FC(F)(F)c1ccc(C2[C@H]3CN(Cc4ccc(-c5ccccc5)cc4)[C@H](c4ccccc4)C34CC2(c2ccccc2)C4)cc1 (stereo not given in full)	-5%	-1%	3.2%	-13&3
COc1cc(C(=O)Oc2cccnc2)cc(OC)c1OC	22%	0%	-0.2%	nt
Cn1nnnc1SCC1=C(C(=O)O)N2C(=O)C(NC(=O)C3CC3c3ccccc3)C2SC1 (stereo not given)	0%	3%	5.1%	1[21.1 µM]
COc1cc(/C=C2/C(=O)N(c3ccc(C(=O)O)cc3)N=C2C)cc(OC)c1O	-1%	0%	0.5%	nt
Cc1nn(Cc2ccccc2)c(C)c1/C=N/NC(=O)CNc1cccc(C(F)(F)F)c1	9%	0%	2.3%	-9
Cc1ccc(CNC(=O)C2CCCN(c3nn4c(=O)cc(C)nc4s3)C2)cc1 (stereo not given)	0%	-2%	-2.6%	-5
CCOc1ccc(CCNC(=O)c2nnn(CC(=O)Nc3ccc(OC)cc3)c2N)cc1OCC	-2%	-2%	-0.8%	nt
CCCN1CCC(N(CCc2ccccc2)Cc2ccccc2)CC1	-3%	2%	0.4%	nt
CCOC(=O)c1c(C)[nH]c(C(=O)CN2CCOCC2)c1C	1%	-11%	9.9%	-1
CC(C)CNC(=O)CN1C(=O)NC2(CCCc3ccccc32)C1=O (stereo not given)	-11%	-2%	-0.6%	nt
O=C(Nc1ccc(Cl)cn1)C1CCN(S(=O)(=O)c2cccs2)CC1	17%	28%	-0.4%	-7
Cc1nc(C(=O)NNC(=O)c2ccccc2Cl)c(C(F)(F)F)o1	12%	0%	1.0%	8
Cc1cc(C)nc(SCc2ccc(C(=O)N/N=C/c3ccccc3C(=O)O)cc2)n1	22%	-1%	-2.0%	7
Cc1cc(NC(=O)c2cc(CC(C)C)on2)n(-c2ccccc2)n1	-12%	-2%	-5.0%	-6
COc1ccc(CC(=O)Nc2cccc(-c3nnc(-c4ccc(C)cc4)o3)c2)cc1OC	10%	?	-0.4%	-3
O=C(CSCc1ccc(Br)cc1)Nc1ccc(S(=O)(=O)N2CCCCCC2)cc1	2%	2%	-4.5%	-8
N#Cc1c(N)n(CCNC(=O)c2ccccc2)c2nc3ccccc3nc12	?	-6%	?	?
CCOC(=O)c1[nH]c2ccc(C)cc2c1N=C(C)N(C)C	3%	-11%	-7.2%	-8
O=C1C2C3C=CC(C3)C2C(=O)N1Cc1ccccc1 (stereo not given)	-2%	-4%	1.0%	-7
O=C(Cn1nc(-c2ccco2)ccc1=O)Nc1cc(Cl)ccc1Cl	0%	-5%	1.4%	nt
CC(C)(C)C(=O)Nc1nnc(SCC(=O)Nc2ccc3c(c2)OCO3)s1	-8%	-10%	-6.4%	10
CC(C)CN1CCN=C1N(C)C	12%	nt	-1.4%	nt
FC(F)(F)C(Oc1nc(NC2CCCCC2)nc(N2CCOCC2)n1)C(F)(F)F	-17%	-2%	6.0%	-2
(list continues)
SMILES	Rango dissoc inh	miR-21 reporter	Rango-impB inh	GLA inh pH 4.5
CC(=O)c1ccc(NC(=O)C(C)N2CCN(C/C=C/c3ccccc3)CC2)cc1 (stereo not given)	-11%	1%	3.0%	4
O=C(NCCc1ccc(Cl)cc1)c1cccnc1	-7%	-31%	0.7%	1
COC(=O)C1CCCN1C(=O)C12CC3CC(CC(C3)C1)C2 (stereo not given)	13%	-9%	0.8%	nt
O=C(CSC1CC(=O)N(CC(c2ccccc2)c2ccccc2)C1=O)Nc1ccc(Cl)cc1 (stereo not given)	4%	14%	-1.4%	-7
CCCc1cc(C(=O)N(C2CCCCC2)C2CCCCC2)no1	11%	-2%	-0.2%	-3
Cc1nn(CC(=O)Nc2ccc3c(c2)nc(CN2CCCC2)n3C)c(=O)c2ccccc12	-10%	0%	1.1%	-2
O=C(O)CC/C(=N\Nc1ccc(Cl)cc1)c1cccs1	0%	-6%	-5.4%	nt

16 structures out of the list, ordered by heavy-atom count, lowest first.
SMILES	Rango dissoc inh	miR-21 reporter	Rango-impB inh	GLA inh pH 4.5
CC(C)CN1CCN=C1N(C)C	12%	nt	-1.4%	nt
O=C(NCCc1ccc(Cl)cc1)c1cccnc1	-7%	-31%	0.7%	1
O=C1C2C3C=CC(C3)C2C(=O)N1Cc1ccccc1 (stereo not given)	-2%	-4%	1.0%	-7
O=C(O)CC/C(=N\Nc1ccc(Cl)cc1)c1cccs1	0%	-6%	-5.4%	nt
CCOC(=O)c1[nH]c2ccc(C)cc2c1N=C(C)N(C)C	3%	-11%	-7.2%	-8
CCCc1cc(C(=O)N(C2CCCCC2)C2CCCCC2)no1	11%	-2%	-0.2%	-3
O=C(Nc1ccc(Cl)cn1)C1CCN(S(=O)(=O)c2cccs2)CC1	17%	28%	-0.4%	-7
CCCN1CCC(N(CCc2ccccc2)Cc2ccccc2)CC1	-3%	2%	0.4%	nt
CC(C)(C)C(=O)Nc1nnc(SCC(=O)Nc2ccc3c(c2)OCO3)s1	-8%	-10%	-6.4%	10
N#Cc1c(N)n(CCNC(=O)c2ccccc2)c2nc3ccccc3nc12	?	-6%	?	?
Cc1ccc(CNC(=O)C2CCCN(c3nn4c(=O)cc(C)nc4s3)C2)cc1 (stereo not given)	0%	-2%	-2.6%	-5
FC(F)(F)C(Oc1nc(NC2CCCCC2)nc(N2CCOCC2)n1)C(F)(F)F	-17%	-2%	6.0%	-2
Cc1cc(C)nc(SCc2ccc(C(=O)N/N=C/c3ccccc3C(=O)O)cc2)n1	22%	-1%	-2.0%	7
Cc1nn(CC(=O)Nc2ccc3c(c2)nc(CN2CCCC2)n3C)c(=O)c2ccccc12	-10%	0%	1.1%	-2
O=C(CSC1CC(=O)N(CC(c2ccccc2)c2ccccc2)C1=O)Nc1ccc(Cl)cc1 (stereo not given)	4%	14%	-1.4%	-7
CCOc1ccc(CCNC(=O)c2nnn(CC(=O)Nc3ccc(OC)cc3)c2N)cc1OCC	-2%	-2%	-0.8%	nt
